High-throughput results from PubChem BioAssay.
GALR2 ag – GALR2 (human) receptor agonism. AID 803. activation, %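 (tested at 5 µM)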. GALR2-expressing cells, agonist activation read-out. 0.48% of 140,000 active;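 active means above mean plus 3 SD of all compounds, about 5% in these data, not always enough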;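 further: 0% = vehicle buffer wells and 100% = reference agonist at full effect; tested in CHO reporter cells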
Target sequence (O43603 whole entry, looked up): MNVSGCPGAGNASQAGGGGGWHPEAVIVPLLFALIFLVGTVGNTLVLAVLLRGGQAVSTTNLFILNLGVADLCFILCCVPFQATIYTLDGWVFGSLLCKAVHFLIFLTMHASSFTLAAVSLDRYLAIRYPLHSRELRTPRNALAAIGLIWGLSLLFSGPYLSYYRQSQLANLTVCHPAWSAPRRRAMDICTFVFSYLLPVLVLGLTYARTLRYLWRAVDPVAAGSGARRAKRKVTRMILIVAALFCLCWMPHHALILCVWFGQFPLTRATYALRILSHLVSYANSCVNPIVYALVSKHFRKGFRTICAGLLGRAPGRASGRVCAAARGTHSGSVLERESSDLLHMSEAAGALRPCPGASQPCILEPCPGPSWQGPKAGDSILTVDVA
PKD1 inh – inhibitors of human PKD1 kinase. Q15139. PKD1 kinase fluorescence polarization assay. inhibition, %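 (about 10 µM by stock and volumes)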. 0.056% of 200,000 active. AID 797;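 active means inhibition of 50% or more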;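 further: controls were vehicle for no effect and a reference inhibitor for full effect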
Insulin prom inh – TRM-6 insulin promoter activity inhibition; inhibition, % at 2 µM; 0.9% of 130,000 active; TRM-6 cells (human fetal islet line), insulin promoter-eGFP reporter, imaging; reporter expression induced with tamoxifen; AID 1273;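 active means inhibition above the mean plus 3 SD, with well images judged a real hit on visual review, cut at about 60% in these data, passing the limit was not always enough; inconclusive means inhibition over the cutoff but images rejected on review; inactive means inhibition not above the cutoff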
RGS16-Gao HTS – modulates binding between human RGS16 and Galphao; binding response (% of control), % at 10 µM; 0.38% of 220,000 active; bead-based flow cytometry RGS16-Galphao binding, fluorescence; actives lie on both sides; O15492+P09471; AID 1441;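 active means below 25% or above 175%, edge rows of some plates excepted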;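 further: Galphao activated by GDP with aluminum fluoride before binding; 100% = wells without compound and 0% = beads without RGS; some results beyond the cut were filed as inactive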
Target sequence (O15492 whole entry, looked up): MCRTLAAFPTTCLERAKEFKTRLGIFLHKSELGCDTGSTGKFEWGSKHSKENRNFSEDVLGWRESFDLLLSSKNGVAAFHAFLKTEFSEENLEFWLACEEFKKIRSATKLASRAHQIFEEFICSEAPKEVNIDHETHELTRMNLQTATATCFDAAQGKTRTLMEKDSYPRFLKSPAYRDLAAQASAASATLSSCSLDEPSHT
Target sequence (P09471 whole entry, looked up): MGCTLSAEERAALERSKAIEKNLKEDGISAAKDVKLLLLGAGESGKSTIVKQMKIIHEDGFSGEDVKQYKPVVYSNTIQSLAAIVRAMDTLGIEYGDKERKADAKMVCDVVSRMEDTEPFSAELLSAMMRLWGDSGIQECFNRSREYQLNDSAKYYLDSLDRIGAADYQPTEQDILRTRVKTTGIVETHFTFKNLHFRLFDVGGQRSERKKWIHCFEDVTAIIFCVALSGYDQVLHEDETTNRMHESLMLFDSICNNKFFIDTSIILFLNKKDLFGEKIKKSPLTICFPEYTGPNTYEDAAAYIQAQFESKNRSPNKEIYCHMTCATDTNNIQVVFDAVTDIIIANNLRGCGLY
HSV replic up – HSV replication enhancement. 0.005% of 220,000 active. HSV replication augmentation in cells, fold increase. maximum fold increase. AID 1956;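 active means peak rise of 1.5-fold or more in the series; inconclusive means self-fluorescent or not available for retest; tested in PC3 cells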;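 further: first round at 10 µM; read as green reporter fluorescence; hits show the peak of a series up to 25 µM; 1 = signal of infected wells without compound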
Insulin prom inh cell count – also measured in Insulin prom inh; calls as there; normalized cell count, %; measured here: cell count, toxicity; reference of the scale not given here;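 cells exposed to compound for 48 h; stained nuclei by imaging scaled within each plate; lower means fewer cells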
HSV replic up primary fold – further read-out of HSV replic up, marked with its call; fold increase; compound at 10 µM; measured here: primary screen fold increase 10 uM; tested in PC3 cells;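 GFP signal in the first replicate; 1 = infected wells without compound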
The depositor's hits bear a star; i = inactive; ? = inconclusive; . = not tested or not shown; & = joins results of further samples. Outcome played no part in choosing rows. About 1.3% of those tested had a hit in this group.

A first look:
SMILES	GALR2 ag	PKD1 inh	Insulin prom inh	Insulin prom inh cell count	RGS16-Gao HTS	HSV replic up	HSV replic up primary fold
Cc1ccccc1C(=O)Nc1cccc(C(=O)N/N=C/c2cc(Cl)cc([N+](=O)[O-])c2O)c1	.	1	.	.	95	i	1.1
CCc1cc2ccccc2nc1SCC(=O)Nc1cc(C)on1	-0.7	0	-23	112	116	i	0.88
CC(NC(=O)CCn1c(=S)[nH]c2ccsc2c1=O)c1ccccc1 (configuration not stated)	.	-1	30	60	99	i	1.2
CCOC(=O)Cc1csc(NS(=O)(=O)c2ccc(F)cc2)n1	0.1	0	7	84	91	i	0.95
CCN(CC)C(=O)c1nn(-c2ccccc2)c2c1C1CCC2(C)C1(C)C (configuration not stated)	.	-9	.	.	102	i	1
O=C1CCCc2nc(N3CCN(c4ccccc4)CC3)ncc21	-1.3	7	.	.	102	i	1.1
Cc1cc(C)nc(/N=C(\N)N2CCCCC2)n1	.	2	.	.	106	i	0.9

The list itself, from the first entry:
SMILES	GALR2 ag	PKD1 inh	Insulin prom inh	Insulin prom inh cell count	RGS16-Gao HTS	HSV replic up	HSV replic up primary fold
Cc1ccccc1C(=O)Nc1cccc(C(=O)N/N=C/c2cc(Cl)cc([N+](=O)[O-])c2O)c1	.	1	.	.	95	i	1.1
CCc1cc2ccccc2nc1SCC(=O)Nc1cc(C)on1	-0.7	0	-23	112	116	i	0.88
CC(NC(=O)CCn1c(=S)[nH]c2ccsc2c1=O)c1ccccc1 (configuration not stated)	.	-1	30	60	99	i	1.2
CCOC(=O)Cc1csc(NS(=O)(=O)c2ccc(F)cc2)n1	0.1	0	7	84	91	i	0.95
CCN(CC)C(=O)c1nn(-c2ccccc2)c2c1C1CCC2(C)C1(C)C (configuration not stated)	.	-9	.	.	102	i	1
O=C1CCCc2nc(N3CCN(c4ccccc4)CC3)ncc21	-1.3	7	.	.	102	i	1.1
Cc1cc(C)nc(/N=C(\N)N2CCCCC2)n1	.	2	.	.	106	i	0.9
C=CCN(CC=C)C(=O)C1CCC(C(=O)N(CC=C)CC=C)CC1 (configuration not stated)	-1.9	-2	25	108	100	i	0.88
Cc1cc(C)c(C#N)c(Oc2ccccc2)n1	-0.9	0	-20	116	91	i	0.96
Cc1ccccc1NC(=O)c1ccc(N/N=C/c2ccccc2O)c([N+](=O)[O-])c1	-3.0	7	.	.	102	.	.
CCN1C2=NCCCN2c2cc(C)c(C)cc21	-1.2	-5	16	109	105	i	0.88
CN(c1nc2ccccc2n2c(-c3ccco3)nnc12)S(=O)(=O)c1ccccc1	-0.1	3	38	140	98	i	0.8
CC(C)CN=CC1=C(O)c2ccccc2C1=O	.	.	.	.	99	i	1
CCN1CCCC1CNC(=O)C(NC(=O)C1CCC(C)CC1)C(C)C (configuration not stated)	-1.3	-11	21	85	96	.	.
CC(SCC(=O)NC(C)C1CC2CCC1C2)C(=O)O (configuration not stated)	-0.7	-16	33	68	110	i	1.1
CCCNC(=O)c1cc2nc(-c3ccccc3)cc(C(F)(F)F)n2n1	-1.6	7	0	115	110	i	0.88
Cc1ccc(C(C)C)c(OCc2nnc3n2CCCCC3)c1	-1.2	-13	.	.	112	i	0.97
CCCCCCCCc1nnc(NC(=O)c2ccco2)s1	-1.2	-4	14	86	86	i	1.1
CCOC(=O)N1CCN(Cc2c(F)cccc2F)CC1	5.0	-7	0	81	120	i	1
CC1(N(O)C=C2C=CC(=O)C=C2)CCCCC1=O (configuration not stated)	.	.	.	.	95	i	1.1
C/C(=N/NC(=O)c1ccccc1)c1ccc(NC(=O)C(F)(F)F)cc1	.	-3	.	.	98	i	0.93
Cc1ccc(NC(=O)CSc2n[nH]c(-c3ccncc3)n2)cc1	-2.1	-14	-20	70	108	i	0.81
COc1ccccc1Nc1nc(N)nc(CSC(=S)N2CCCCC2)n1	.	.	.	.	103	i	0.89
Cc1ccnc(NC(=O)C2(c3cccs3)CCOCC2)c1	-0.8	1	.	.	102	i	1.1
CCCCSc1nnc([C@@H](NC(=O)OC(C)(C)C)C(C)C)o1	-1.0	5	-26	69	103	i	1.1
COc1ccc2c(=O)c3c(=O)n(-c4ccccc4)c(-c4ccc(C)cc4)nc3oc2c1	.	.	.	.	99	i	0.89
COCCCNC(=O)CCn1c(=O)c2ccccc2n(CC(=O)Nc2c(C)cccc2C)c1=O	-1.8	1	.	.	101	i	0.96
O=C(/C=C/c1ccccc1)Nc1scc(-c2ccccc2)c1C(=O)O	.	-5	.	.	105	i	0.94
O=C(CSc1nn(-c2ccc(F)cc2)c(=S)s1)N1CCN(C(=O)c2ccco2)CC1	-0.9	-5	.	.	100	i	0.93
CC1CCC/C(=N/NC(=O)c2ccccc2-n2cccc2)C1 (configuration not stated)	-1.5	-1	-71	54	30	i	1
Cc1oc(S(=O)(=O)N2CCCC2)cc1C(=O)Nc1ccc(F)cc1	.	.	.	.	102	i	1.2
CCCCn1c2ccc(F)cc2c2nnc(NN)nc21	.	0	3	144	111	i	0.87
Cc1ccc(-c2cc(-c3ccccc3)c3c(N)c(S(C)(=O)=O)sc3n2)cc1	-0.5	-8	50	52	96	i	1.2
CC1CC(C)CN(S(=O)(=O)c2ccc(C(=O)NCc3ccc4c(c3)OCO4)cc2)C1 (configuration not stated)	-1.7	5	.	.	96	i	0.97
O=C(c1cc2c(s1)CCCC2)N1CCN(c2ccccc2)CC1	.	0	-20	103	102	i	0.95
CC1CCCCN1C(=O)c1ccc(COc2ccc([N+](=O)[O-])cc2)o1 (configuration not stated)	-0.8	2	-380	131	105	i	0.83
Nc1c(C(=O)N2CCCC2)sc2nc3c(cc12)CCCCCC3	.	-4	.	.	101	i	1
CC(C)NC(=O)c1cc2n(n1)C(C(F)(F)F)CC(c1ccco1)N2 (configuration not stated)	.	-4	0	91	96	i	1
Cn1ncc(Cl)c1C(=O)Nc1cccc(Cl)c1	-1.0	-6	40	90	103	i	0.64
O=C(/C=C/c1ccc(S(=O)(=O)NCc2ccco2)cc1)NCc1ccccc1Cl	1.1	-7	.	.	99	i	1.1
Fc1cccc(CSc2nnc3ccc(-c4ccncc4)nn23)c1	.	-13	50	66	103	i	0.94
CC(=O)N1CCN(c2ccc(NC(=S)NC(=O)c3ccccc3)cc2)CC1	-0.3	-5	-29	132	102	i	0.88
Cc1nc2ccccc2cc1C(=O)N/N=C/c1cccc([N+](=O)[O-])c1	-3.1	18	0	81	104	i	0.92
O=C(c1ccccc1F)N1CCC(N2CCCCCC2)CC1	-1.2	-1	39	120	112	i	0.94
C=CCNC(=S)Nc1nc2c(cc1C(=O)OCC)CCCC2	0.4	2	-11	88	98	i	0.86
O=C(NCCc1ccccn1)c1cccc(S(=O)(=O)N2CCCCCC2)c1	0.0	-5	-31	113	103	i	1
Cc1oc(C(C)(C)C)cc1C(=O)Nc1cccc(C(=O)O)c1	-0.4	8	16	139	105	i	1.2
Cn1c(N2CCOCC2)c(/C=N/O)c2ccccc21	.	-3	.	.	114	i	1
O=C(CSc1nc2[nH]ncc2c(=O)[nH]1)Nc1nccs1	.	-7	.	.	97	i	0.88
COc1ccc(N=C2S/C(=C\c3ccc(C)o3)C(=O)N2CC(C)C)cc1	-1.5	-10	-27	139	97	i	1.1
O=C(Nc1nnc(-c2ccc(Cl)cc2)o1)c1ccc(N2C(=O)CCC2=O)cc1	-0.8	-10	25	60	105	i	0.9
NS(=O)(=O)c1ccc(NC(=O)c2cc(-c3cccs3)nc3ccccc23)cc1	-1.2	-6	.	.	102	i	0.9
COc1ccc(C(=O)NCC(=O)OCC(=O)N2CCN(S(=O)(=O)c3ccccc3)CC2)cc1	-0.2	-14	23	135	97	i	1
Cc1nc2c3cc(Cl)ccc3n(CCN3CCCCC3)c2s1	1.7	-10	-34	57	100	i	0.64
O=c1c2c3c(sc2n(CCN2CCOCC2)c(=O)n1Cc1ccco1)CCCCC3	-0.8	2	.	.	99	i	0.81
COc1cc(NC(=O)CN2CCN(c3ccccc3F)CC2)cc(OC)c1	-0.5	-13	.	.	103	i	0.8
Cc1cccc(NC(=S)NCc2ccco2)c1C	-1.9	4	-47	23	110	i	1
O=[N+]([O-])c1cc(S(=O)(=O)Nc2cccc(Cl)c2)ccc1N=Nc1c(O)[nH]c2ccccc12	.	-6	-12	113	100	i	0.86
CCOC(=O)c1ccc(NC(=O)COC)cc1	-1.7	-14	15	81	104	i	0.99
O=C(N=c1ccn(-c2nc3ccccc3nc2NS(=O)(=O)c2ccc(Cl)cc2)cc1)c1ccccc1Cl	.	.	.	.	105	?	.

Full records, quoted from the list:
`O=C(c1ccccc1F)N1CCC(N2CCCCCC2)CC1` in the list: GALR2 ag: -1.2; PKD1 inh: -1; Insulin prom inh: 39; Insulin prom inh cell count: 120; RGS16-Gao HTS: 112; HSV replic up: i; HSV replic up primary fold: 0.94
`O=C(NCCc1ccccn1)c1cccc(S(=O)(=O)N2CCCCCC2)c1` in the list: GALR2 ag: 0.0; PKD1 inh: -5; Insulin prom inh: -31; Insulin prom inh cell count: 113; RGS16-Gao HTS: 103; HSV replic up: i; HSV replic up primary fold: 1

The list goes on.
SMILES	GALR2 ag	PKD1 inh	Insulin prom inh	Insulin prom inh cell count	RGS16-Gao HTS	HSV replic up	HSV replic up primary fold
O=C(/C=N/O)Nc1ccc2sc3ccccc3c2c1	.	.	.	.	96	i	1.1
CCOC(=O)N1CCN(CCC(=O)Nc2cccc(Br)c2)CC1	-1.3&-1.4	-4&-2	46	116	97&105	i	0.98&1.1
CCOc1ccc(/C=N/NC(=O)Nc2ccccc2)cc1	.	10	25	93	95	i	0.99
CC1CC(C)(C)NC(=S)N1CCCC(=O)Nc1ccc(Br)cc1 (configuration not stated)	.	-8	.	.	95	i	0.97
CC(=O)C1=C(O)C(=O)N(c2ccc(Br)cn2)C1c1ccc(F)cc1 (configuration not stated)	.	-4	.	.	99	i	0.97
O=C(O)c1ccc(Cl)c(S(=O)(=O)NCC2CCCO2)c1 (configuration not stated)	-1.9	-3	19	92	124	i	0.84
CC(/C=N/n1c(-c2ccc(Cl)cc2)n[nH]c1=S)=C\c1ccco1	-0.1	-7	.	.	102	i	1.1
COc1cc(C)c(Cl)c(C)c1S(=O)(=O)NC1CC(C)(C)NC(C)(C)C1	.	6	.	.	100	i	0.95
COc1cc(S(=O)(=O)NCCOC23CC4CC(CC(C4)C2)C3)c(OC)cc1Cl	1.4	0	4	112	104	i	1
O=C(Oc1ccc(Cl)cc1)c1ccc2nccnc2c1	-2.1	-6	-7	88	103	i	0.89
O=C(CN1CCN(Cc2ccccc2)CC1)Nc1ccccc1-c1ccccc1	.	-5	.	.	109	i	1

Exported with values under each structure: entries from further up
Below each SMILES – GALR2 ag	PKD1 inh	Insulin prom inh	Insulin prom inh cell count	RGS16-Gao HTS	HSV replic up	HSV replic up primary fold
> O=C(CN1CCN(Cc2ccccc2)CC1)Nc1ccccc1-c1ccccc1
→ .	-5	.	.	109	i	1
> O=C(O)c1ccc(Cl)c(S(=O)(=O)NCC2CCCO2)c1 (configuration not stated)
→ -1.9	-3	19	92	124	i	0.84
> CCOc1ccc(/C=N/NC(=O)Nc2ccccc2)cc1
→ .	10	25	93	95	i	0.99
> CCOC(=O)N1CCN(CCC(=O)Nc2cccc(Br)c2)CC1
→ -1.3&-1.4	-4&-2	46	116	97&105	i	0.98&1.1
